High-throughput results from PubChem BioAssay.
HCMV NEC inh: inhibitors of HCMV UL50-UL53 interaction, biochemical, HTRF | normalized percent inhibition | inhibition, % (no concentration beside the values) | 190,000 tested, 0.15% active;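 active = both replicates at 50% or more, plus weaker picks with an unusually low signal ratio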;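 also: stock transfer was 100 nL into about 20 µL; 0% = negative control wells and 100% = wells with untagged competitor protein; inactives centre near -12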
Sa growth inh: S. aureus growth inhibition at 42 and 30 °C, primary screen, LtaS inhibitor project, RN4220, two temperatures; relative growth, % (test concentration not listed); 170,000 tested, 0.53% active; OD600, 20 h, 42 °C; active compounds read low; AID 720641, 2013;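 active = growth at 42 °C up to 50% and 20 or more points under that at 30 °C, or under 10% at both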;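 also: 300 nL library stock went into each well; scaled to the means of positive and negative controls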
GIV Gai3 FP: inhibitors of GIV peptide binding to Galpha-i3, primary screen, biochemical, fluorescence polarization, FITC-GIV GBA peptide, rat Galphai3; Guanine nucleotide-binding protein G(i) subunit alpha-3 (Rattus norvegicus), P08753; 90 min; active compounds read low; scaled: aluminum fluoride 0%, vehicle 100%; percent of control (FP), % (no concentration beside the values); 210,000 tested, 0.42% active; AID 1224905, 2016;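 active = replicate mean at 85% of control or lower, very high polarization wells dropped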;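 also: wells of about 15 µL received 100 nL stock; the first replicate is given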
Target sequence (P08753 whole entry, looked up): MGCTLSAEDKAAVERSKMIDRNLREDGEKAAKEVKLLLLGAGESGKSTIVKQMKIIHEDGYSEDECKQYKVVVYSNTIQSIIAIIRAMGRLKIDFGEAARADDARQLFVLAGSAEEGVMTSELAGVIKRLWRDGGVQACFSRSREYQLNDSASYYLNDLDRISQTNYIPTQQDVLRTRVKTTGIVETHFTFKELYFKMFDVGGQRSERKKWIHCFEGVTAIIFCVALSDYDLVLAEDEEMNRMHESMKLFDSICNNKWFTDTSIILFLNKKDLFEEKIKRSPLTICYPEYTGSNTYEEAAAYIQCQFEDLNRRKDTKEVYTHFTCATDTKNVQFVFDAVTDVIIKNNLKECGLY
Sa growth inh second temp: also measured in Sa growth inh; calls as there; relative growth, %; measured here: growth at 30 °C;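 optical density after 20 h as mean of two plates; 100% = untreated growth and lower means inhibition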
Numbers without * were called inactive; . = no result given; & = joins results of further samples.

SMILES	HCMV NEC inh	Sa growth inh	Sa growth inh second temp	GIV Gai3 FP
COc1ccc(-c2noc(CC(=O)NC3CC3)n2)cc1	-37.4	76.0	89.7	101.6
Cc1cc(=O)[nH]c(Sc2c(C)c3cc4c(cc3[nH]c2=O)OCO4)n1	-33.7	90.6	71.6	103.1
CCc1ccc(NC(=O)C2=C(C)C(=O)OC23CCCCC3)cc1	-3.9	109.0	89.2	101.5
Cc1ccc2c(CN3C(=O)C4CC=CCC4C3=O)cc(=O)oc2c1C (stereo not given)	-0.7	74.0	96.5	.
CCOC(=O)c1oc2ccc(Br)cc2c1CSc1nnc(N)s1	-10.1	100.7	89.3	.
Cc1ccccc1-c1noc(-c2ccccc2OCC(=O)Nc2ccccc2[N+](=O)[O-])n1	-10.4	101.2	88.0	98.4
Cc1cc(C)c(S(=O)(=O)NCc2nc(N)n(S(=O)(=O)c3c(C)cc(C)cc3C)n2)c(C)c1	-5.9	.	.	103.9
O=C(c1cc(-c2ccncc2)n[nH]1)N1CCN(c2ccccc2F)CC1	18.9	.	.	106.7
NS(=O)(=O)c1ccc(CCNC(=O)Nc2cccc(Cl)c2)cc1	-18.6	67.1	78.8	.
CCOC(=O)c1ccc(N2C(=O)C(C)C(Cc3cc(C)cc(C)c3)C2=O)cc1 (stereo not given)	.	129.4	90.5	103.2
CCOCCCNC(=O)CCc1nnc2ccc(N3CCN(c4cccc(OC)c4)CC3)nn12	.	122.8	78.8	100.7
Cn1nnnc1SCC(=O)Nc1ccc2nc(SCc3ccccc3F)sc2c1	-12.6	.	.	103.4
CC(C)(C)c1cc(-c2nnc(C3CC3)o2)n(Cc2ccc(F)cc2)n1	-5.1	105.8	103.5	107.0
O=C1c2[nH]nc(-c3ccccc3O)c2C(c2cccc(O)c2)N1Cc1ccncc1 (stereo not given)	-16.4	108.6	88.5	100.2
CCOc1ccccc1NC(=O)CC(c1ccc(F)cc1)N1Cc2ccccc2C1=O (stereo not given)	.	101.0	74.8	100.5
COc1ccc2c(c1)CCC(/C=N/O)=C2Cl	-7.3	70.6	76.0	103.2
Cc1ccc2c(c1)sc1nc(-c3cc4ccccc4oc3=O)cn12	-30.3&-10.7	88.9&113.8	79.0&88.9	100.6&103.3
Cc1csc(NC(=O)CSc2ncnc3ccccc23)n1	2.4&-1.1	.	.	95.2
Cc1ccc(-c2csc3ncnc(NCCN4CCNC4=O)c23)cc1	-26.6	99.5	83.6	101.4
COc1cccc(N2CC(NC(=O)NC(C)(CO)CO)CC2=O)c1 (stereo not given)	-28.8	102.9	87.5	102.2
Cc1ccc(C)c(-n2c(=O)c3ccccc3n3c(SCc4ccc(C#N)cc4)nnc23)c1	-20.9	107.9	89.8	.
CCCCn1nc(NC(=O)c2cccc(Cl)c2)c2cc3ccccc3nc21	-3.1	110.0	89.3	108.9
Cc1cc(=O)[nH]c(N/N=C2/CCc3ccccc3C2)n1	-62.5	22.5	11.7	.
CSc1nnc(SCC(=O)NC(=O)c2cccn2C)s1	-23.0	96.8	91.6	.
Cc1ccc(CN2CCN(C3CCN(C(=O)OC(C)(C)C)CC3)C(=O)C2=O)cc1	.	109.6	93.4	110.9

More results.
SMILES	HCMV NEC inh	Sa growth inh	Sa growth inh second temp	GIV Gai3 FP
COC(=O)[C@H](C)NC(=O)c1ccc(S(=O)(=O)N2CCOCC2)cc1	-6.5	97.2	99.6	.
O=C1C=C(NCc2ccncc2)CC(c2ccccc2)C1 (stereo not given)	-14.8	90.3	90.4	110.5
OC(COc1ccc2cc(Br)ccc2c1)Cn1cccn1 (stereo not given)	-18.6	112.0	93.1	103.0
O=C(CCn1cnc2ccccc2c1=O)N1CCc2ccccc21	-9.9	.	.	104.3
O=C(c1cnn2ccccc12)N1CCN(C2CCCCC2)CC1	-1.9	97.8	83.8	105.1
Cn1c(SCC(=O)c2ccc3c(c2)OCCO3)nnc1C(F)(F)F	-2.5	99.2	100.8	100.5
Cc1cc(C)cc(NC(=O)CCCn2c(=O)c3cccn3c3ccccc32)c1	-10.4	123.3	86.5	101.2
O=C1COc2cc(S(=O)(=O)N3CCCC(C(=O)N4CCc5ccccc5C4)C3)c(Cl)cc2N1 (stereo not given)	12.4	.	.	105.9
COCCCn1c(=N)c(C(=O)NCc2ccco2)cc2c(=O)n3cccc(C)c3nc21	-127.4	112.0	91.6	108.8
O=C(O)c1cc(-c2ccc(N3CCOCC3)cc2)nn1-c1ccc(F)cc1	6.4	128.6	100.7	.
CCCCNC(=O)CN1C(=O)C2CCCC2=Nc2cc(C)c(C)cc21 (stereo not given)	-21.7	.	.	107.9
COC(=O)c1cc(=O)nc2n1C1O[C@H](CO)C(O)[C@H]1O2 (stereo not given in full)	-13.6	111.4	94.0	102.3
O=C(CNc1ccccc1N1CCCCC1)Nc1ccc(F)cc1Cl	-17.9	99.0	90.8	.
CN(Cc1ccccc1)C(=O)c1ccc2nc(N3CCCCC3)sc2c1	1.5	120.5	100.4	107.2
Cc1ccc(NC(=O)CSc2nnc(C)n3c2cc2sccc23)c(C)c1	.	97.5	85.1	107.2
Cc1ccc(S(=O)(=O)NC2CCCCC2)cc1-c1nnc2c3ccccc3c(C)nn12	.	77.0	93.5	103.0
CCC(=O)Nc1sc(C)c(CC)c1C(=O)NC1CC1	-7.2	127.3	107.2	113.3
CCOC(=O)C1=C(C)N=c2s/c(=C\c3ccc(Br)o3)c(=O)n2C1c1ccccc1OC (stereo not given)	-20.8	.	.	101.6
COc1cccc(NC(=O)Cn2c(=O)oc3cc(S(=O)(=O)N4CCCC4)ccc32)c1	0.4	100.9	89.1	101.8
O=C1c2ccccc2NC(c2ccncc2)N1c1ccccn1 (stereo not given)	5.1	89.5	101.1	104.2
CC1(C)CC(=NNC(N)=S)CC(C)(C)N1	-13.4	96.6	85.5	101.8
CC1=C(C(=O)Nc2ccc(C)cc2C)C(c2ccccc2F)n2nc(SCC(=O)c3ccc(C)cc3)nc2N1 (stereo not given)	.	102.7	100.9	108.3
COc1ccc(CNC(=O)CSc2nc3cc(Cl)ccc3o2)cc1OC	-13.7	95.3	96.7	.
C=CCNc1ncnc2c1c(-c1ccccc1)cn2-c1ccc(OCC)cc1	.	95.1	89.0	105.2
Cc1ccc2c(c1)N(S(=O)(=O)c1ccc3c(c1)NC(=O)CC(=O)N3)CCO2	.	84.4	86.1	102.5

Next part:
SMILES	HCMV NEC inh	Sa growth inh	Sa growth inh second temp	GIV Gai3 FP
O=C(NCc1ccccc1)C1CCCN(c2nc3cccnc3n(Cc3ccccc3)c2=O)C1 (stereo not given)	-15.5	.	.	109.4
O=C(c1cc(-c2ccco2)[nH]n1)N1CCN(c2cccc(Cl)c2)CC1	-6.9	65.5	17.6	108.5
CCOC(=O)c1cc(OC(=O)c2cccc(F)c2)n(-c2ccccc2)n1	-3.3	76.6	92.2	98.0
CC(=O)O/N=C(\N)c1ccc(-c2csnn2)cc1	-30.2	97.0	84.8	105.0
Cn1c(COc2cccc3cccnc23)nnc1SCC(=O)O	-14.9	101.7	88.5	104.0
CC(=O)Nc1ccc(C(=O)OCC(=O)N(C)C2CCS(=O)(=O)C2)cc1 (stereo not given)	-19.8	76.1	92.5	.
COc1ccnc(CS(=O)c2nc3ccc(OC(F)F)cc3[nH]2)c1OC (stereo not given)	-38.6&-51.7	96.1&92.3	88.6&86.1	100.6
CCn1nc(C(=O)OCCCCN2C(=O)c3ccccc3C2=O)c2ccccc2c1=O	-4.3	98.7	94.4	.
CNC(=O)CCCn1c(C)c2cnn(-c3ccccc3)c(=O)c2c1C	-12.5	104.2	84.7	107.9
CCCCC(=O)Nc1ccc2oc(-c3ccc(O)c(Br)c3)nc2c1	.	98.3	84.0	104.3
COc1ccc2oc(C)c(C(=O)Cn3ccnc3)c2c1	-12.0	105.4	77.8	106.3
COC(=O)c1cc(S(=O)(=O)N2CCCC2C(=O)Nc2cccc(OC)c2)cn1C (stereo not given)	11.5	.	.	100.8
O=C(COC(=O)c1n[nH]c2ccccc12)NC(c1ccccc1)c1ccccc1	-29.4	134.7	73.9	.
CCOC(=O)c1c(C)c(-c2ccccc2)n(CC(=O)NCc2cccc(OC)c2)c1C	-5.7	95.9	76.9	107.2
CCNC(=S)N/N=C/c1ccccc1C(=O)O	-7.9	74.2	89.9	.
CC(NC(=O)C12CC3CC(CC(O)(C3)C1)C2)c1ccccc1 (stereo not given)	9.3	89.9	96.9	.
Cc1ccc(C(O)CSc2nnc(-c3ccc4ccccc4c3)n2C)cc1 (stereo not given)	-49.3	98.1	72.0	102.2
CCc1ccccc1NC(=O)CCC(=O)O	6.3	109.4	106.0	110.5
CCCc1cc(C(=O)Nc2ccccc2C(=O)OC)no1	-1.3	100.3	91.9	101.9
CC(C)CN(CC(C)C)S(=O)(=O)c1ccc(C(=O)O)cc1	4.3	91.8	92.8	96.6
COc1ccc(COCC(O)CS(=O)(=O)Cc2ccccc2)cc1 (stereo not given)	-6.7	91.1	91.0	95.4
COc1cccc(-c2noc(NCCN3CCOCC3)n2)c1	-14.9	101.6	89.7	100.8
NNC(=O)c1cc(=S)nc[nH]1	-19.7	77.8	42.5	104.1
CCOc1ccccc1NC(=O)CSc1c(C)cnc2c1c(=O)n(C)c(=O)n2C	.	122.5	88.0	103.2
CC(=O)Nc1ccc(C(=O)Nc2ccc3c(c2)N(C2CCCC2)C(=O)c2ccccc2S3)cc1	.	99.0	92.1	105.6
CCc1ccc(-c2cn3nc(C)c(C)nc3n2)cc1	-33.5	121.8	85.4	106.5

Of the compounds above, 10 have fluorine:
SMILES	HCMV NEC inh	Sa growth inh	Sa growth inh second temp	GIV Gai3 FP
O=C(c1cc(-c2ccncc2)n[nH]1)N1CCN(c2ccccc2F)CC1	18.9	.	.	106.7
Cn1nnnc1SCC(=O)Nc1ccc2nc(SCc3ccccc3F)sc2c1	-12.6	.	.	103.4
CC(C)(C)c1cc(-c2nnc(C3CC3)o2)n(Cc2ccc(F)cc2)n1	-5.1	105.8	103.5	107.0
CCOc1ccccc1NC(=O)CC(c1ccc(F)cc1)N1Cc2ccccc2C1=O (stereo not given)	.	101.0	74.8	100.5
Cn1c(SCC(=O)c2ccc3c(c2)OCCO3)nnc1C(F)(F)F	-2.5	99.2	100.8	100.5
O=C(O)c1cc(-c2ccc(N3CCOCC3)cc2)nn1-c1ccc(F)cc1	6.4	128.6	100.7	.
O=C(CNc1ccccc1N1CCCCC1)Nc1ccc(F)cc1Cl	-17.9	99.0	90.8	.
CC1=C(C(=O)Nc2ccc(C)cc2C)C(c2ccccc2F)n2nc(SCC(=O)c3ccc(C)cc3)nc2N1 (stereo not given)	.	102.7	100.9	108.3
CCOC(=O)c1cc(OC(=O)c2cccc(F)c2)n(-c2ccccc2)n1	-3.3	76.6	92.2	98.0
COc1ccnc(CS(=O)c2nc3ccc(OC(F)F)cc3[nH]2)c1OC (stereo not given)	-38.6&-51.7	96.1&92.3	88.6&86.1	100.6
